Autofluor counter = compound fluorescence in toxin protease inhibitor counterscreen | compound autofluorescence counterscreen, microsphere flow cytometry; active compounds read high | fluorescence intensity (no concentration beside the values) | 360,000 tested, 3.1% active;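 active = at least 3 SD above the mean of all compounds, about 16000 in these data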;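 also: 100 nL of 1 mM stock went into each well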
PrP 5UTR inh = inhibition of PrP 5' UTR reporter expression. cell-based PrP 5' UTR mRNA reporter, plate reader. 340,000 tested, 0.35% active. inhibition, % (no concentration beside the values);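 active = every replicate at 50% or more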;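 also: 0 = median of the neutral control wells; tested in H4 reporter cells; numbers are from one replicate; inactives centre near -14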
Starred values were filed as active, the others as inactive.

compound | Autofluor counter | PrP 5UTR inh
CC(C)NC(=O)N(C)C[C@H]1Oc2c(NS(=O)(=O)c3ccc(F)cc3)cccc2C(=O)N([C@H](C)CO)C[C@@H]1C | 3655 | -18
O=C(Nc1ccc(F)c(F)c1)c1oc2ccccc2c1NC(=O)C1CCCO1 (centres undefined) | 4457 | -31
COc1ccc(S(=O)(=O)N(C)C[C@H]2Oc3ccc(NS(=O)(=O)c4ccc(F)cc4)cc3C(=O)N([C@H](C)CO)C[C@@H]2C)cc1 | 4107 | -19
Cn1c(=O)c2c(nc(CCC3CCCC3)n2C)n(C)c1=O | 3574 | -11
O=C(O)c1cccc(OS(=O)(=O)c2cc(Br)ccc2Br)c1 | 3316 | -21
Cn1c(O)c(N=NC(=O)Cc2c[nH]c3ccccc23)c2ccccc21 | 4163 | -8
CCC(=O)NC1=C(Cl)C(=O)C(NC(=O)CC)=C(Cl)C1=O | 3286 | -11
COc1ccc(CCNC(=O)C(=O)N/N=C/c2cccs2)cc1OC | 6215 | -35
CCN1C(=O)CC2CCCC1C2 (centres undefined) | 4560 | -14
CCN(C(=O)CSc1nnc(COc2ccccc2F)n1N)c1c(N)n(Cc2ccccc2)c(=O)[nH]c1=O | 3097 | -1
O=[N+]([O-])c1ccc(Cl)cc1C=NNc1ccccn1 | 4071 | -6
COCC(=O)N(C)[C@H]1C[C@H]2c3cc(-c4ccccc4)ccc3CCN2C(=O)[C@H]1[C@H](C)O | 3451 | -15
O=C1OC[C@@H]2CCCN2C(=O)[C@H](CC(=O)N(CCO)Cc2ccccc2)C/C=C\C[C@H]1Cc1ccc(F)cc1 | 4069 | -7
C[C@@H]1CC[C@]2(C(=O)O)CC[C@]3(C)C(=CCC4[C@@]5(C)CC[C@H](O)[C@@](C)(C(=O)O)C5CC[C@]43C)C2[C@]1(C)O (some centres undefined) | 2854 | -21
Nc1c(Cl)ncnc1N/N=C/c1ccc2ccccc2n1 | 2582 | -22

(continued)
compound | Autofluor counter | PrP 5UTR inh
C#CCN1C=CC(=O)[C@@H](OC(=O)Nc2ccc(Cl)cc2)[C@H]1c1ccccc1Br | 3850 | -19
O=C(Cn1cc(COc2ccc(Br)cc2[N+](=O)[O-])nn1)c1ccc(O)cc1 | 3733 | -24
CCCCC/C=C/C1=CC(=O)C[C@H](c2ccc(OC)c(OC)c2)C1 | 3003 | -8
O=C(Cc1ccc(NC(=O)C2CCCN(C(=O)CCc3ccccc3)C2)cc1)Nc1ccc(C(=O)N2CCOCC2)cc1 (centres undefined) | 3931 | -34
O=C1N[C@H](Cc2ccccc2)COC(=O)[C@@H](Cc2ccc(F)cc2)C/C=C\C[C@H]1CC(=O)N(CCO)Cc1ccccc1 | 3891 | -15
CCN(C(=O)CN1CCCc2cc(C)ccc21)c1c(N)n(Cc2ccccc2)c(=O)[nH]c1=O | 5804 | 3
O=C(Cc1ccccc1[N+](=O)[O-])NCC(=O)c1ccc2c(c1)OCO2 | 3429 | -6
O=C1C2CCCCN2C(=O)N1CCN1CCN(c2ccc(F)cc2)CC1 (centres undefined) | 3747 | -87
c1ccc(Nc2ccc3ccccc3c2)cc1 | 5212 | -55
CC12CCC3c4ccc(O)cc4CCC3C1CC(=NO)C2O (centres undefined) | 2943 | -12
CC(C)C[C@@H](CN)NC(=O)c1nc[nH]c1C(=O)N[C@@H](Cc1ccccc1)C(=O)CNC[C@H](C)NC(=O)c1nc[nH]c1C(=O)N[C@@H](CC(C)C)C(=O)O | 3612 | -4
CC(C)[C@H](CN1CCC[C@H]1CN1C(N)=NC[C@@H]1Cc1ccccc1)N1C[C@@H](Cc2ccccc2)N(CCc2ccc(Cl)c(Cl)c2)C1=N | 3195 | 3
CC1=NN(C(=O)c2ccncc2)C(=O)C1N=Nc1ccc2ccccc2c1 (centres undefined) | 4092 | -100
C=CC[C@@H](CC(=O)N(CCO)Cc1ccccc1)C(=O)N[C@H](COC(=O)[C@@H](CC=C)CC(=O)OC(C)(C)C)c1ccccc1 | 2915 | -12
COC(=O)C1(C)COP(=O)(NC23CC4CC(CC(C4)C2)C3)OC1 (centres undefined) | 3845 | -6

Additional structures follow:
compound | Autofluor counter | PrP 5UTR inh
COC1C=CC=C(C)C(=O)NC2=CC(=O)C(N)=C(CC(C)CC(OC)C(O)C(C)C=C(C)C1OC(N)=O)C2=O (centres undefined) | 3856 | 76*
COc1cc(NC(C)CCCNC(C)C)c2ncccc2c1OC (centres undefined) | 3707 | -25
COC(=O)C1=C(c2cccc(OCc3ccccc3)c2)C[C@@H]2CC[C@H]1N2C(=O)NCCN1CCOCC1 | 3884 | -14
O=C1C=C(c2ccc3cc[nH]c3c2)C[C@@H](c2ccc3c(c2)OCO3)C1 | 3507 | -34
O=C(CCN1CCCCC1)c1cccc(Cl)c1 | 4213 | -10
COC(=O)C1=C(C)NC(=S)NC1c1ccc(N(CCCl)CCCl)cc1Cl (centres undefined) | 3519 | -34
COC1=C(Br)C(=O)c2ncccc2C1=O | 4047 | -12
O=C(NNC(=O)c1ccc(Br)o1)c1csc(N2CCOCC2)n1 | 3698 | -15
COC(=O)C1C2CCCCC1C(=O)O2 (centres undefined) | 4195 | -10
O=C1CC=C2C3CC4N(CCC45c4ccccc4N1C25)CC3=CCO (centres undefined) | 3646 | -13
COc1ccc(NC(=O)Nc2ccc3c(c2)C(=O)N([C@H](C)CO)C[C@H](C)[C@@H](CN(C)C(=O)Nc2c(C)noc2C)O3)cc1 | 3853 | -11
C[C@@H]1CN([C@H](C)CO)C(=O)c2cc(NC(=O)Cc3cn(C)c4ccccc34)ccc2O[C@H]1CN(C)S(=O)(=O)c1ccc(F)cc1 | 2788 | -11
COC(=O)C1=C(C)N(Cc2ccccc2)C(=NCCc2c[nH]c3ccccc23)N[C@H]1c1cccc(C(F)(F)F)c1 | 4567 | -16
CCC1(O)C(=O)OCc2c1cc1n(c2=O)Cc2cc3c(N)cccc3nc2-1 (centres undefined) | 3546 | 53*
COC(=O)C1=C(c2ccc(OC(F)(F)F)cc2)C[C@@H]2CC[C@H]1N2C(=O)N1CCC(O)CC1 | 4058 | -7

12 entries from above, reformatted.
Under each structure: Autofluor counter	PrP 5UTR inh
- COC1C=CC=C(C)C(=O)NC2=CC(=O)C(N)=C(CC(C)CC(OC)C(O)C(C)C=C(C)C1OC(N)=O)C2=O (centres undefined)
→ 3856	76*
- COc1cc(NC(C)CCCNC(C)C)c2ncccc2c1OC (centres undefined)
→ 3707	-25
- COC(=O)C1=C(c2cccc(OCc3ccccc3)c2)C[C@@H]2CC[C@H]1N2C(=O)NCCN1CCOCC1
→ 3884	-14
- O=C1C=C(c2ccc3cc[nH]c3c2)C[C@@H](c2ccc3c(c2)OCO3)C1
→ 3507	-34
- O=C(CCN1CCCCC1)c1cccc(Cl)c1
→ 4213	-10
- COC(=O)C1=C(C)NC(=S)NC1c1ccc(N(CCCl)CCCl)cc1Cl (centres undefined)
→ 3519	-34
- COC1=C(Br)C(=O)c2ncccc2C1=O
→ 4047	-12
- O=C(NNC(=O)c1ccc(Br)o1)c1csc(N2CCOCC2)n1
→ 3698	-15
- COC(=O)C1C2CCCCC1C(=O)O2 (centres undefined)
→ 4195	-10
- O=C1CC=C2C3CC4N(CCC45c4ccccc4N1C25)CC3=CCO (centres undefined)
→ 3646	-13
- COc1ccc(NC(=O)Nc2ccc3c(c2)C(=O)N([C@H](C)CO)C[C@H](C)[C@@H](CN(C)C(=O)Nc2c(C)noc2C)O3)cc1
→ 3853	-11
- C[C@@H]1CN([C@H](C)CO)C(=O)c2cc(NC(=O)Cc3cn(C)c4ccccc34)ccc2O[C@H]1CN(C)S(=O)(=O)c1ccc(F)cc1
→ 2788	-11

More records follow:
compound | Autofluor counter | PrP 5UTR inh
COc1ccc(-c2ccc3c(c2)[C@@H]2C[C@H](N(C)C(=O)C(C)(C)C)[C@H]([C@H](C)O)C(=O)N2CC3)cc1 | 4082 | 2
COc1ccc(S(=O)(=O)N(C)CC(=O)NCCCN2CCOCC2)cc1C | 3424 | -17
CCCC(=O)Nc1ccc(C(=O)COC(=O)C2CC2C)cc1 (centres undefined) | 3260 | -61
CSc1ncnc2c1ncn2CC(=O)C1CCC2C3CCC4=CC(=O)CCC4(C)C3CCC12C (centres undefined) | 4004 | -17
Cc1ccc(NCCCn2cnc(C(=O)Nc3ccc(C)c(C)c3)n2)cc1C | 3882 | 6
Cc1ccc(S(=O)(=O)N2[C@@H](c3ccc(F)cc3)C(C(=O)O)=CC[C@H]2c2ccc(C(C)C)cc2)cc1 | 4095 | -16
CCOc1ccc(NC(=O)c2cccc(S(=O)(=O)Nc3c(C)n(C)n(-c4ccccc4)c3=O)c2)cc1 | 3394 | -31
CSCCC(NC(=O)c1ccccc1)C(=O)N/N=C(\C)Cc1ccccc1 (centres undefined) | 5978 | -8
O=Cc1cc(OCc2ccccc2)ccc1[B-](F)(F)F | 2915 | 1
CCC1CCCCN1S(=O)(=O)c1ccc(NC(=O)C2CC(=O)N(C(C)(C)C)C2)cc1 (centres undefined) | 4097 | -60
COC(=O)C(CCC(C(=O)OC)N1C(=O)c2ccccc2C1=O)N1C(=O)c2ccccc2C1=O (centres undefined) | 3312 | -15
CC(O)[C@H]1CC[C@H]2[C@@H]3CC[C@H]4C[C@H](O)CC[C@]4(C)[C@H]3[C@H](O)C[C@]12C (some centres undefined) | 2845 | 0
Cc1nnc2c3ccccc3ccn12 | 2840 | -20
COC(=O)C1=C(c2ccc(-c3ccccc3)c(F)c2)C[C@@H]2CC[C@H]1N2C(=O)N1CCCCC1 | 3025 | -6
CCN(CC(=O)N1CCC(C(N)=O)CC1)S(=O)(=O)c1cc(Cl)ccc1Cl | 4039 | -23

(continued)
compound | Autofluor counter | PrP 5UTR inh
COc1ccc2sc(-c3ccccc3OC)c(-c3ccc(O)cc3)c2c1 | 3399 | -15
CCN1C(=O)[C@H]2[C@@H](c3ccc(-c4ccc(F)cc4)cc3)N[C@@](C)(C(=O)OC)[C@H]2C1=O | 3540 | -10
CC1(NCc2ccc(Cl)cc2)COP(=O)(NCc2ccccc2)OC1 (centres undefined) | 4123 | -11
CCc1noc(C)c1C(=O)OCC(=O)NCc1ccccc1 | 3535 | -6
CC12CCC(C(=O)CC1=O)C2(C)C (centres undefined) | 3837 | -7
CC(C)(C)OC(=O)C[C@H]1C/C=C\C[C@@H](CC(=O)N(CCO)Cc2ccccc2)C(=O)N[C@H](Cc2ccccc2)COC1=O | 4030 | -2
CC(C)c1ccc(S(=O)(=O)/N=C2/C=C(Sc3ncn[nH]3)C(=O)c3ccccc32)cc1 | 2038 | -14
CCC(C)Sc1ccc([C@@H]2[C@H]3C(=O)N(CC)C(=O)[C@H]3[C@]3(C(=O)OC)CCCN23)cc1OC (some centres undefined) | 3313 | -11
NC(=O)c1ncn([C@@H]2O[C@H](CNCc3cccc4c3sc3ccccc34)[C@@H](O)[C@H]2O)n1 | 3405 | -20
Cc1ccc2oc3ccccc3c(=O)c2c1 | 5720 | -36
CC(=O)Nc1ccc(NC(=O)CSc2nnc(N)n2-c2ccccc2)cc1 | 3673 | -13
CC1(C)CC[C@]2(CO)CC[C@]3(C)C(=CCC4[C@@]5(C)CC[C@H](O)[C@@](C)(CO)C5CC[C@]43C)[C@@H]2C1 (some centres undefined) | 3100 | -4
COC(=O)C1=C(c2ccc(OC(F)(F)F)cc2)C[C@@H]2CC[C@H]1N2C(=O)N1CCOCC1 | 3910 | -46
C=C1C2C[C@@]3([C@@H]1O)[C@@H](C[C@@H]2O)[C@@]12C4[C@@H]3C[C@@H]1[C@@](C)(CC[C@@H]2O)CN4CC | 4631 | -18
NC1(C(=O)O)CSSC1 | 3487 | -98

(further entries)
compound | Autofluor counter | PrP 5UTR inh
CC1(C)CC(=O)C=C(/C=C/c2ccccc2)C1 | 2964 | -14
COC(=O)C1=C(C)N(Cc2ccccc2)C(=NCc2cccc(C(F)(F)F)c2)N[C@H]1c1cccc(C(F)(F)F)c1 | 4262 | -15
CCOC(=O)CC[C@H](NC(=O)Cn1cc(C)c(=O)[nH]c1=O)C(=O)OCC | 3705 | 4
CN(C)c1cccc(C(=O)Nc2ccc(S(=O)(=O)Nc3nccs3)cc2)c1 | 4994 | -1
CC1CCCC(=NNc2ccc3ccccc3n2)C1 (centres undefined) | 3069 | -28
CCC(C)Sc1ccc([C@@H]2[C@@H]3C(=O)N(CC)C(=O)[C@@H]3[C@]3(C(=O)OC)CCCCN23)cc1 (some centres undefined) | 2813 | -8
C#CCOCCOCCOCCNc1nc(N2CCN(C(=O)[C@H]([C@@H](C)CC)n3cc(CCCCN)nn3)CC2)nc(N2CCN(C(=O)[C@H](CCCCN)n3cc(CCCC)nn3)CC2)n1 | 4093 | -25
O=C1C=C(C2OC(CO)C(O)C2O)C(=O)N1 (centres undefined) | 5610 | 0
O=C(N/N=C/c1ccc(O)c(Br)c1)c1cc2c(ccc3ccccc32)o1 | 4629 | 3
C=CC[C@H](CC(=O)N(CCO)Cc1ccccc1)C(=O)N[C@H](COC(=O)[C@@H](CC=C)CC(=O)OC(C)(C)C)Cc1c[nH]c2ccccc12 | 2886 | -12
CCC(/C=C1\Oc2ccc(OC)cc2N1C)=C\c1sc2ccccc2[n+]1CCCS(=O)(=O)[O-] | 6802 | -17
CCOC(=O)[C@H]1[C@H]2COc3ccc(Cl)cc3[C@@H]2N2C(=O)CN(Cc3ccc(OC)cc3)C(=O)[C@@]12C | 3917 | -12
O=C1NC[C@H](Cc2ccccc2)N(C[C@H]2CCCN2C[C@H](Cc2ccccc2)N2C[C@H](Cc3ccccc3)N(CC3CCCCC3)C(=O)C2=O)C1=O | 2954 | -31
C=CCOC(=O)N1CCC2CC1c1cc(-c3cccc(C)c3)ccc12 (centres undefined) | 3487 | -11

Screening data (PubChem)

Only part of the results is shown; the hit share may differ from the screen's.
